KCNQ2 inh: KCNQ2 potassium channel inhibitors, primary screen, cell-based, CHO-K1, FluxOR thallium flux, B-score (AID 2156); O88943; 20 min; hits give low values; only compounds with negative scores are shown here; some inactives read as strong as hits; B-score at 10 µM; 310,000 compounds, 1.1% hits;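 active = fluorescence ratio B-score at most minus 3 library SDs, with starting brightness B-score within 2 library SDs, cut at about -5.5 in these data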
Target sequence (O88943 whole entry, looked up): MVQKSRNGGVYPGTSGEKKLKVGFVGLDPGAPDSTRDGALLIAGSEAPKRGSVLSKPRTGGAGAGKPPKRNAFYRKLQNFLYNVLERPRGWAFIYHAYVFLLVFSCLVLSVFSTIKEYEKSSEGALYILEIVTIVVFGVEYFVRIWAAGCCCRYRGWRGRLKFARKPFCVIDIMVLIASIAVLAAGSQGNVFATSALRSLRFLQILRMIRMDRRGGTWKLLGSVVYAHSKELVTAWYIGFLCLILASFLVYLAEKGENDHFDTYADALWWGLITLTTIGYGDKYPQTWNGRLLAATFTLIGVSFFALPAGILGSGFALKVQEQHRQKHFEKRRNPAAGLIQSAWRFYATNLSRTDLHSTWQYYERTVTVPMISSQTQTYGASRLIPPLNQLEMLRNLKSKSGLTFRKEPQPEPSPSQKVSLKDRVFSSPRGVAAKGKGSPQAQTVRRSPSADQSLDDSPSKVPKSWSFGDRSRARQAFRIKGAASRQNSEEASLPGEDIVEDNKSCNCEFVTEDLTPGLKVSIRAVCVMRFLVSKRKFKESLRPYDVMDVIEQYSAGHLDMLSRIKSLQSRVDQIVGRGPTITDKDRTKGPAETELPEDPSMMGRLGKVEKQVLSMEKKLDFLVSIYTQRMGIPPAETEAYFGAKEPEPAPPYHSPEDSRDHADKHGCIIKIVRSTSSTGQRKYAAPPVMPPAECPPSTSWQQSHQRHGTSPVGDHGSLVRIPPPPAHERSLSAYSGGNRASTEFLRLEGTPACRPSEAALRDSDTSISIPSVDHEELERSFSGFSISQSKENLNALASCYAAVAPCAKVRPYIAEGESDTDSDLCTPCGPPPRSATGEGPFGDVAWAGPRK
KCNQ2 inh baseline: also measured in KCNQ2 inh; calls as there; B-score; measured here: initial fluorescence intensity artifact check;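 brightness before thallium and not channel activity; 0 = typical well and far values either way flag optical interference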
An asterisk follows results filed as active; i = inactive. These rows are one share of the data; rates above refer to the full screens.

The opening two entries, to show the layout:
KCNQ2 inh,KCNQ2 inh baseline,SMILES
i,0.31,O=C(NCCN1CCN(c2ccccc2)CC1)c1ccccc1F
i,0.65,Cc1ccc2c(c1)nnn2C1CCN(CC(=O)c2ccc(Cl)cc2)CC1

The whole of this part, from the first entry:
KCNQ2 inh,KCNQ2 inh baseline,SMILES
i,0.31,O=C(NCCN1CCN(c2ccccc2)CC1)c1ccccc1F
i,0.65,Cc1ccc2c(c1)nnn2C1CCN(CC(=O)c2ccc(Cl)cc2)CC1
i,0.12,Cc1cc2ccccn2c1C(=O)c1ccc([N+](=O)[O-])cc1[N+](=O)[O-]
i,1.9,CCOc1ccc(NC(=O)C2CCC(CNc3c(N4CCOCC4)c(=O)c3=O)CC2)cc1 (stereo not given)
i,-0.29,COC(=O)c1ccc2c(c1)C(=O)N(C1CCCCC1)C2=O
i,-1.3,CCC(=O)OC1CC(C)N(C(=O)c2ccccc2)c2ccc(C)cc21 (stereo not given)
i,0.08,CCSc1nc2sc3c(c2c(=O)n1-c1ccc(OC)cc1)CCN(C)C3
i,0.95,COc1ccccc1NC(=S)N(Cc1cccs1)C1CCCC1
i,0.19,CC(C)(C)c1ccc(C(=O)N2CCN(c3ccc(N4CCOCC4)nn3)CC2)cc1
i,0.02,O=C(Nc1ccccc1Cl)c1ccc2ccccc2c1
i,-0.01,CN(CC(=O)NC1CCN(Cc2ccccc2)CC1)S(=O)(=O)c1ccc2c(c1)c(=O)n(C)c(=O)n2C
i,-0.45,Cn1c(=O)c(C(=O)NNC(=O)c2ccc(Br)cc2)c(O)c2ccccc21

In a second layout: results already given.
Fields – KCNQ2 inh | KCNQ2 inh baseline
> Cc1ccc2c(c1)nnn2C1CCN(CC(=O)c2ccc(Cl)cc2)CC1
    i | 0.65
> Cc1cc2ccccn2c1C(=O)c1ccc([N+](=O)[O-])cc1[N+](=O)[O-]
    i | 0.12

(further entries)
KCNQ2 inh,KCNQ2 inh baseline,SMILES
i,3.4,O=C(COC(=O)c1cccc(C(F)(F)F)c1)NCc1ccc(Cl)cc1
i,-0.12,CC(C)COc1nc2ccccc2c(=O)n1OCC(=O)O
i,0.28,CCOc1ccc(-c2c(C(=O)N/N=C/c3ccc(C)o3)nnn2-c2nonc2N)cc1
i,-0.59,Cc1ccc(N=Nc2c(O)[nH]c3ccc(F)cc23)cc1
i,0.19,C=C(C)C1CC=C(C)/C(=N/NC(=O)COc2ccccc2Cl)C1 (stereo not given)
i,-1.5,Cn1c2ccccc2c2cc(/C=N/NC(=O)c3cc(O)cc(O)c3)ccc21
i,-1.3,COc1ccc(-c2n[nH]c(C)c2-c2ccc(Cl)cc2)c(O)c1
i,-0.33,O=C1N(Cc2cccnc2)C[C@@H]2C[C@@H](c3cccc(Oc4ccccc4)c3)N3CCC[C@@]123
i,-0.28,CCCNC(=O)c1cccc(Br)c1
i,-0.85,CCCCCCCCCc1nc2sc3c(c2c(=O)n1NC(=O)c1ccc([N+](=O)[O-])cc1)CC(C)(C)OC3
i,1.5,Cc1cc(C)cc(C(=O)NC2CC(C)(C)NC(C)(C)C2)c1
i,-0.04,NC(=O)Cn1cc(C(=O)c2cccs2)c2ccccc21
i,-0.15,O=C(CCN1C(=O)c2ccccc2C1=O)C1=NN[C@@H]2C(=O)N(c3ccc(F)cc3)C(=O)[C@H]12
i,0.7,COC(=O)c1sccc1NC(=O)CCC1CCCC1
i,0.31,CS(=O)(=O)N(CC(=O)NCc1ccco1)c1cc(C(F)(F)F)ccc1Cl
i,-0.87,O=C(CN(Cc1ccccc1)S(=O)(=O)c1ccccc1)N1CCOCC1
i,2.4,Cc1ccc(C2(c3ccc(C)cc3)NC(=O)N(Cc3c(C)noc3C)C2=O)cc1
i,0.34,COc1cc(/C=C2\N=C(c3ccccc3)NNC2=O)cc(OC)c1OC
i,-1,COC(=O)CC1COc2ccccc2N1S(=O)(=O)c1ccc(OC)cc1 (stereo not given)
i,-1.7,COc1ccc(S(=O)(=O)N(C(=O)c2ccncc2)c2ccc(OC(=O)c3ccncc3)cc2)cc1
i,0.73,Cc1cccc2nc(CSc3nncn3-c3ccccc3)cn12
i,0.23,C=CCN(c1ccccc1)S(=O)(=O)c1cccc(C(=O)Nc2cccc(C)n2)c1
i,-3,O=S(=O)(c1ccc(NC(=S)NN=C(Cc2ccccc2)Cc2ccccc2)cc1)N1CCOCC1
i,0.21,O=C(O)COc1ccc(F)cc1Br
i,-0.52,Cc1ccc(N2CC(C(=O)NC(C)CCc3ccccc3)CC2=O)cc1 (stereo not given)
i,-0.04,CCOC(=O)C1CCN(C(=O)COc2ccc(Br)cc2C)CC1
i,-0.05,COc1ccc(/C=N/NC(=O)Cn2cnc3ccccc3c2=O)cc1OC
i,0.08,Cc1ccccc1C(=O)N1CCC(C(=O)NC(C)c2ccc(-n3ccnc3)cc2)CC1 (stereo not given)
i,-0.57,COc1cccc(NC(=O)c2ccc(-c3ccccc3[N+](=O)[O-])o2)c1
i,4.8,O=C(Nc1ccc(C2CC2(Cl)Cl)cc1)c1cccc([N+](=O)[O-])c1 (stereo not given)
i,0.21,Cc1ccc(C)c(NC(=O)CSc2nnc([C@@H](N)Cc3ccccc3)o2)c1
i,2.9,O=C(CN1C(=O)COc2ccccc21)N(Cc1ccc2c(c1)OCO2)CC1CCCO1 (stereo not given)
i,-0.48,COc1ccc(C(=O)NC2CCCc3c2cnn3-c2ccc(C)c(C)c2)c(OC)c1OC (stereo not given)
i,-2.6,NNC(=O)c1nc[nH]c1C(=O)Nc1ccccn1
i,1.4,CCc1cccc(OCCCCNCCOC)c1
i,-1.3,Cn1c(=O)c2c(ncn2CC(=O)Nc2nc3ccc(F)cc3s2)n(C)c1=O
i,-0.09,S=c1[nH]nc(-c2cc(-c3ccccc3)n[nH]2)n1/N=C/c1c2ccccc2cc2ccccc12
i,-0.18,CN(Cc1ccccc1)C(=O)c1cccc(N2C(=O)NC3CC2(C)Oc2ccccc23)c1 (stereo not given)
i,-0.56,Cc1ccc(C)c(N2CCN(C(=O)CN3C(=O)c4ccccc4C3=O)CC2)c1
i,-0.83,COC(=O)c1ccc2[nH]c(C)c(CN3CCCC3)c(=O)c2c1
i,-0.3,COc1ccc2nc(NC(=O)CSc3nnc(C)s3)sc2c1
i,-0.1,CC(C)CN1C(=O)c2ccc(C(=O)Nc3nccs3)cc2C1=O
i,0.07,CN(C)CCCOC(=O)COc1ccc(Br)cc1
i,-0.11,CC(=O)Nc1ccc(/C=N/NC(=O)c2cccs2)cc1
i,-0.43,CCN1CCCc2cc(CN(CCN3CCOCC3)C(=S)Nc3cccc(Cl)c3)ccc21
i,0.82,CC1CCN(S(=O)(=O)CCNC(=O)c2ccccc2)CC1
i,1.6,COc1ccc(OC)c2sc(N3CCN(C(=O)c4ccc([N+](=O)[O-])s4)CC3)nc12
i,-0.66,COc1ccc(N2CCN(C(=O)C(Cc3ccccc3)n3cccc3)CC2)cc1 (stereo not given)

Some of these compounds in order of molecular weight, largest number first.
KCNQ2 inh,KCNQ2 inh baseline,SMILES
i,-0.09,S=c1[nH]nc(-c2cc(-c3ccccc3)n[nH]2)n1/N=C/c1c2ccccc2cc2ccccc12
i,0.07,CN(C)CCCOC(=O)COc1ccc(Br)cc1
i,0.82,CC1CCN(S(=O)(=O)CCNC(=O)c2ccccc2)CC1

Other records follow:
KCNQ2 inh,KCNQ2 inh baseline,SMILES
i,1.1,Cc1ccc(C)c(NC(=S)N2CCN(Cc3ccccc3)CC2)c1
i,1.5,CCOc1cccc2cc(C(=O)N3CC(C)OC(C)C3)c(=O)oc12 (stereo not given)
i,-0.09,COc1ccc(/C=C/C(=O)N(C)Cc2cccs2)cc1S(=O)(=O)N1CCOCC1
i,-0.03,O=C(COc1ccc(Cl)cc1)OCc1csc(Nc2ccccc2)n1
i,0.39,O=C(CCn1c(=O)c2ccccc2n(Cc2ccccc2)c1=O)NCc1ccc2c(c1)OCO2
i,0.4,Cc1noc(C)c1COc1cccc(C(=O)NCc2cccc(Cl)c2)c1
i,1.8,COc1ccc(-c2cc(C(F)F)n3ncc(C(=O)Nc4cnn(Cc5ccccc5)c4)c3n2)cc1
i,-1.6,CC(=O)N1CC(C)Oc2ccc(S(=O)(=O)NC(CC(=O)O)c3ccccc3)cc21 (stereo not given)
i,-2.4,O=C(NCC1CCCO1)c1ccc(Cl)c(S(=O)(=O)N2CCOCC2)c1 (stereo not given)
i,-1.9,CC(C)c1nnc(NC(=O)CCC(=O)N2CCN(c3ccccn3)CC2)s1
i,-1.2,CCc1ccc(C(=O)Nc2cccnc2Oc2ccc(Cl)cc2)cc1
i,-0.23,COc1ccc(C2=NN(C(=O)CCC(=O)O)C(c3ccccc3OC)C2)cc1 (stereo not given)
i,-0.33,Cc1cc(C(=O)NCC(C)(C)N2CCOCC2)c(C)o1
i,0.17,CCCCNC(=O)CSc1nc(Cc2ccccc2)nc2ccccc12
i,0.14,O=S(=O)(NCc1ccc(Cl)cc1)NCc1ccccc1F
i,1.7,CC(=O)c1c(C)nn(CCC(=O)O)c1C
i,1.3,c1csc(-c2nnc(COc3ccc4c(c3)OCO4)o2)c1
i,-0.57,Cc1sc2nc(COC(=O)c3ccc(N4CCCC(C)C4)c([N+](=O)[O-])c3)[nH]c(=O)c2c1C (stereo not given)
i,0.3,Cc1ccc2c(c1)N(CC(=O)N1CCCC1)C(=O)CO2
i,6.4,Cc1[nH]c2ccccc2c1C(=O)COc1ccccc1
i,0.55,Cc1ccc(-c2nc(SCC(=O)c3c(N)n(C)c(=O)n(C)c3=O)n[nH]2)cc1
i,-0.98,O=C(CC1C(=O)NCCN1C(=O)Nc1ccc(F)cc1)Nc1ccc(F)cc1 (stereo not given)
i,-0.82,O=C(Cc1ccccc1)NCCCN1CCN(CCCNC(=O)Cc2ccccc2)CC1
i,-2,Cc1cc(=O)n(Cc2ccccc2)c2c(C)cccc12
i,0.03,O=C(Nc1ccc(S(=O)(=O)N2CCCCC2)cc1)c1cccnc1Cl
i,-0.7,Cc1ccc(-c2nnn(CC(=O)N(c3ccc(F)cc3)C(C(=O)NC(C)(C)C)c3ccco3)n2)o1 (stereo not given)
i,-0.29,Cc1ccc(S(=O)(=O)Nc2nc(-c3ccccc3)cs2)cc1
i,0.17,COC(=O)c1sc2ncn(-n3c(C)ccc3C)c(=O)c2c1C
i,0.03,O=C(Nc1ccc(F)c(Cl)c1)Nc1ccc(Cl)cn1
-7*,-0.06*,CCN(CC)S(=O)(=O)c1cc(-c2nnc(-c3ccc(Br)cc3)o2)ccc1Br
i,0.53,Fc1cccc(Cl)c1Cc1noc(/C=C/c2ccccc2)n1
i,-2.6,CC(=O)Nc1sc(N/N=C/c2ccccc2F)nc1-c1ccc(C)cc1
i,0.83,O=C(Nc1cc(C(F)(F)F)ccc1N1CCOCC1)c1cn2ccccc2n1
i,-0.15,Cc1cc(C)cc(NC(=O)c2cc(=O)c3ccccc3o2)c1
i,-0.69,CCN(CC)S(=O)(=O)c1ccc(-c2nnc(SCC(N)=O)n2CC)cc1
i,1.1,CCCOP(=O)(OCCC)C(Nc1cccc(C(F)(F)F)c1)c1ccc(C)cc1 (stereo not given)
i,0.5,CCN1CCCC1CNCc1cccc(OC)c1OCc1ccccc1 (stereo not given)
i,0.71,CC(C)(C)OC(=O)NCCCC[C@H](NC(=O)c1nc[nH]c1C(=O)NC(c1ccccc1)c1ccccc1)C(=O)OC(C)(C)C
i,-0.54,O=C(COC(=O)c1ccc(Br)cc1)NCCC1=CCCCC1
i,-0.67,CCN(C(=O)COC(=O)CN(C)S(=O)(=O)c1ccc(NC(C)=O)cc1)C1CCS(=O)(=O)C1 (stereo not given)
i,-1.4,COc1cc([N+](=O)[O-])ccc1NC(=O)CSc1nnc(C)c(C)n1
i,0.89,CC1(C)SC(=S)N(NC(=O)Nc2ccccc2)C1N(O)C(=O)Nc1cccc2ccccc12 (stereo not given)
i,0.38,COc1cc(/C=C2/NC(=O)N(Cc3ccccc3F)C2=O)cc(OC)c1O
i,-0.12,CC1(C)CC(=O)c2sc(NC(=O)c3ccccc3)nc2C1
i,0.35,CN(C)CCCNC(=O)c1cc2sc3ccccc3c2s1
i,0.38,CCOC(=O)N1CCN(C(=O)c2ccc(Cn3c(=S)[nH]c4cc5c(cc4c3=O)OCO5)cc2)CC1
i,1.5,NC(=O)c1ccc(N2CCCCC2)c(N2C(=O)C3C4C=CC(C4)C3C2=O)c1 (stereo not given)
i,0.19,CS(=O)(=O)N(CC(=O)N1CCCCCC1)c1ccccc1
i,1.5,COc1cc2c(cc1OC)CN(Cc1nc3ccsc3c(=O)[nH]1)CC2
i,-0.91,Cc1cccc(NCc2ccccc2O)c1
i,-0.34,CN1CCN(CCCNCc2cn(CCC#N)c3ccccc23)CC1
i,-1.1,O=C(Nc1nc2ccccc2[nH]1)c1cccc(Br)c1
i,0.01,CSc1ncccc1C(=O)Nc1nc2ccc(Oc3ccccc3)cc2s1
i,0.87,CCOC(=O)c1cnc(-c2ccccc2)nc1Oc1cccc(Cl)c1
i,-0.63,Cc1cc(=O)oc2cc(OCC(=O)OCC(=O)Nc3ccccc3Br)ccc12
i,0.78,CCOc1ccc(/C=N/N2CCN(Cc3ccccc3)CC2)cc1
i,-0.02,CC(C)c1onc(C(=O)NCCc2ccccc2)c1[N+](=O)[O-]

Single records (already shown). Order of screens: KCNQ2 inh | KCNQ2 inh baseline
COc1cc2c(cc1OC)CN(Cc1nc3ccsc3c(=O)[nH]1)CC2 is listed with i | 1.5
CN1CCN(CCCNCc2cn(CCC#N)c3ccccc23)CC1 is listed with i | -0.34
CCOC(=O)c1cnc(-c2ccccc2)nc1Oc1cccc(Cl)c1 is listed with i | 0.87
